# Mtb H37Rv: M. tuberculosis H37Rv growth inhibitors, H37Rv strain (AID 1626); M. tuberculosis H37Rv growth inhibition; higher % means a stronger effect; actives 0.95% (n = 220,000); inhibition, % at 10 µM; hits with a dose series show IC50 in µM;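 active means confirmed in a dose series; inconclusive means inhibition above 80% but not taken into the dose series; inactive means below 80% or under 30% at every dose of the series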;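 further: bacteria incubated seven days before Alamar blue readout; 0% = bacteria only wells and 100% = bacteria with antibiotic wells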
# YopH PTP inh: YopH tyrosine phosphatase inhibitors, primary screen, biochemical, fluorescence Ex485/Em525 | YopH tyrosine phosphatase [Yersinia enterocolitica] | inhibition, %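 (about 10 µM by stock and volumes)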 | AID 898, 2007 | actives 0.16% (n = 140,000);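 active means inhibition of 50% or more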;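 further: controls were vehicle for no effect and minimum signal wells for full effect; inactives centre near -20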
# Arbovirus inh: antivirals against arbovirus infection, primary screen, cell-based, full library, 10K replicate subset; inhibition, % at 10 µM; arbovirus infection cell-based antiviral screen; actives 0.37% (n = 200,000);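 active means inhibition from about 30%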;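 further: bluetongue infection of BSR cells; cell survival read as ATP light after 72 h; 0% = infected wells without compound and 100% = uninfected wells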
# Mtb bLac sens: beta-lactam sensitization of Mtb H37Rv, H37Rv; actives 0.27% (n = 330,000); inhibition, % at 25 µM; M. tuberculosis H37Rv growth with meropenem, percent inhibition; hits of this screen are not shown here;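 active means about 74% or more and at least 40 points above the plate without the antibiotic, then above 30% in a dose series; inconclusive means first-round hits that could not be retested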;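 further: growth measured after seven days incubation then overnight dye step; 0% = bacteria only wells and 100% = bacteria with antibiotic; twin plates without the antibiotic show which effects depend on it; some results filed as inactive read as strong as hits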
# RecA splice inh: Mtb RecA intein splicing inhibitors, primary screen, biochemical, fluorescence, HTS; Protein RecA (Mycobacterium tuberculosis (strain ATCC 25618 / H37Rv)), P9WHJ3; cell-free RecA intein splicing; inhibition, %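 (about 9 µM by stock and volumes)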; actives 0.75% (n = 290,000); AID 2221, 2009; in the data active means inhibition above about 30%; inconclusive means no clear call, values can overlap the other calls;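 further: 0% = vehicle wells and 100% = reference inhibitor control wells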
# Target sequence (P9WHJ3 whole entry, looked up, canonical isoform): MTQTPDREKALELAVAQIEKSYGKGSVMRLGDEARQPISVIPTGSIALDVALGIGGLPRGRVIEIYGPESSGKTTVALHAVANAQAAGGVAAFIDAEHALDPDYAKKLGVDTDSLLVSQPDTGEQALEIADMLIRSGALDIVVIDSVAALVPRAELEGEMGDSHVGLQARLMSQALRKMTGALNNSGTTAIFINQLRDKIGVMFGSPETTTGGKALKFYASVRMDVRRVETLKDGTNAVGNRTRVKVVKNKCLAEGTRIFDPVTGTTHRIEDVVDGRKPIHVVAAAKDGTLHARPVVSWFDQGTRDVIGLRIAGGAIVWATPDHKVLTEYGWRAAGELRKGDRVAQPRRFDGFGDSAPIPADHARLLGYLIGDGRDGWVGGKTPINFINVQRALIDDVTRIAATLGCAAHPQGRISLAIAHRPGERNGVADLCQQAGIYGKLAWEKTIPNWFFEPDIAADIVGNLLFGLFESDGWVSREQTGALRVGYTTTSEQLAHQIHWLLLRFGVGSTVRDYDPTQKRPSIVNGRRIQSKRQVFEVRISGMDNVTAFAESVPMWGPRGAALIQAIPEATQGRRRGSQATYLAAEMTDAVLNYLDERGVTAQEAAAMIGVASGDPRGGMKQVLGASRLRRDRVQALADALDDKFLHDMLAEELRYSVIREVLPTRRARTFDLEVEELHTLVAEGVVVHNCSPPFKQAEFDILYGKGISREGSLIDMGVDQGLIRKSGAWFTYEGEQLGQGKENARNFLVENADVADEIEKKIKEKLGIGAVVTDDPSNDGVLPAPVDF
# Arbovirus inh repeat: further read-out of Arbovirus inh, marked with its call; inhibition, %; measured here: 10K subset replicate screen; many hits read low in the repeat;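 first of two repeat runs on a subset; 0% = infected and 100% = uninfected wells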
# An asterisk follows results filed as active; ? = inconclusive; . = no result given. Some of the compounds tested. The share of hits here may be higher or lower than overall.
SMILES,Mtb H37Rv,YopH PTP inh,Arbovirus inh,Mtb bLac sens,RecA splice inh,others
O=C(O)c1cc(C2CC2)nc2ccccc12,-5%,8,-4,-2,3.0,
COc1ccc(C)cc1NC(=O)c1nnn(Cc2cccc(F)c2)c1N,0%,-22,-32,?,0.7,
CCC(Oc1ccccc1)C(=O)N1CCC(C(N)=O)CC1 (stereo unspecified),1%,-33,8,7,-0.5,
COc1cc(-c2nc(C)c(C(C)=O)n2O)ccc1OCC(=O)Nc1ccc(F)cc1,14%,.,-2,93,0.1,
CN1CCN(C(=O)c2cc3nc(-c4ccccc4)cc(-c4ccccc4)n3n2)CC1,4%,7,0,-15,-1.0,
Cc1cccc(-c2noc(CCC(=O)Nc3ccc(C(N)=O)cc3)n2)c1,0%,.,.,0,-2.1,
COC(=O)C(O)(NC(=O)NC(C)=O)C(F)(F)F (stereo unspecified),0%,-36,12,-7,9.9,
CN1CCN(S(=O)(=O)c2cccc(C(=O)Nc3nc(-c4ccccc4)cs3)c2)CC1,.,-10,18,95,1.1,
Cc1ccc(Nc2nc(N)nc(CSCCO)n2)cc1,5%,-6,2,3,5.1,
O=C(NCC(=O)N(CC1CCCO1)C1(C(=O)NC2CCCC2)CCCCC1)c1ccccc1 (stereo unspecified),-1%,-7,2,1,-1.1,
C#CCNC(=O)C1=C[C@@H](c2ccc(C(F)(F)F)cc2)C[C@@H](OCc2ccc(CO)cc2)O1,-1%,.,.,-5,3.3,
COc1ccc(CN2CCN(C(=O)C3CCN(S(=O)(=O)c4cccs4)CC3)CC2)c(OC)c1OC,1%,.,14,-5,-0.7,
CC1Cc2ccccc2N1S(=O)(=O)c1cccc(C(=O)Nc2cccnc2)c1 (stereo unspecified),15%,.,.,-7,4.6,
CCC(=O)c1cc2c(C)cc(=O)oc2c(C)c1OC,-3%,-22,-2,-10,-1.1,
CN(CC(=O)N1CCOCC1)C(=O)CSc1nc2ccccc2s1,7%,.,14,-2,-0.4,
Cc1ccc(CSC2=Nc3ccccc3C3=NC(CC(=O)NCc4ccco4)C(=O)N23)cc1 (stereo unspecified),-5%,-97,4,0,16,
Oc1ccc(-c2nc3ncccn3c2Nc2ccc3c(c2)OCO3)cc1,11%,-17,-15,-4,-3.4,
O=S(=O)(c1ccc(NC(=S)N/N=C/c2ccc(O)c(O)c2)cc1)N1CCOCC1,-10%,.,.,-6,-3.3,
O=C1/C(=C\c2cccc([N+](=O)[O-])c2O)SC(=S)N1Cc1ccccc1,.,.,.,1,4.5,
CCN(CC)C(=O)c1sc2c(c1C)c(=O)n(-c1ccc(C)c(C)c1)c(=O)n2CC(=O)NCC1CCCO1 (stereo unspecified),5%,.,19,-1,1.9,

# A draw from above in order of molecular weight, smallest number first.
SMILES,Mtb H37Rv,YopH PTP inh,Arbovirus inh,Mtb bLac sens,RecA splice inh,others
Cc1cccc(-c2noc(CCC(=O)Nc3ccc(C(N)=O)cc3)n2)c1,0%,.,.,0,-2.1,
O=S(=O)(c1ccc(NC(=S)N/N=C/c2ccc(O)c(O)c2)cc1)N1CCOCC1,-10%,.,.,-6,-3.3,
CCN(CC)C(=O)c1sc2c(c1C)c(=O)n(-c1ccc(C)c(C)c1)c(=O)n2CC(=O)NCC1CCCO1 (stereo unspecified),5%,.,19,-1,1.9,

# Next part:
SMILES,Mtb H37Rv,YopH PTP inh,Arbovirus inh,Mtb bLac sens,RecA splice inh,others
Clc1ccc(-c2nc3ccccc3n2OCc2ccccc2)cc1,2%,-41,13,7,0.2,
CC(=O)c1cnc2cc(C)nn2c1C,-5%,13,11,-15,-0.7,
CCc1ccc(C(=O)N2CCN(c3ccc(F)cc3)CC2)s1,1%,9,4,25,1.0,
CCCOc1ccc(C(=O)Nc2ccc(S(=O)(=O)Nc3cc(C)nc(C)n3)cc2)cc1,3%,.,.,62,0.9,
O=S(=O)(Nc1ccc2c(c1)OCCO2)c1ccc2oc3ccccc3c2c1,-4%,-1,-26,-5,13,
Oc1ccccc1-c1n[nH]c(=S)n1Cc1ccccc1,.,.,.,-8,-0.3,
CC(C)CC(c1nnnn1CCc1ccccc1)N1CCC(C(N)=O)CC1 (stereo unspecified),1%,-6,6,-8,8.6,
O=C(c1ccccc1)C1CCN(C(=O)c2ccc(Cl)cc2)CC1,.,.,.,-12,-0.6,
O=C(NCc1csc(-c2cccs2)n1)C1CCC1,-6%,.,.,-3,0.6,
CC1COc2ccccc2N1C(=O)c1ccc(Cl)cc1 (stereo unspecified),.,.,.,1,-0.1,
Cc1ccc(-n2nnnc2SCc2ccccn2)cc1C,.,-13,-4,0,0.1,
COc1ccc(S(=O)(=O)N2CCC(C(N)=O)CC2)c2ccccc12,4%,-12,3,-4,2.6,
COc1c(Cl)cc(Cl)cc1CNCCNCC(C)O (stereo unspecified),1%,5,1,8,3.1,
Cc1cc(NC(=O)/C=C/c2cccc(Cl)c2)n(-c2nc3ccccc3[nH]2)n1,11%,-25,-12,43,4.6,
O=C(NCCN1CCCCC1)c1c(O)c2ccccc2[nH]c1=O,-15%,-15,-6,-4,-2.9,
CCOCCCn1c(SCC(=O)Nc2ccc(C(N)=O)cc2)nc2ccccc2c1=O,-1%,-45,-4,-3,5.5,
CCCOc1ccc(C(=O)N(CC(C)C)c2c(N)n(Cc3ccccc3)c(=O)[nH]c2=O)cc1,.,.,.,-6,-3.2,
COc1ccc(CNS(=O)(=O)NCc2ccccc2)cc1,.,.,4,0,-0.7,
O=C(COC(=O)Cc1n[nH]c(=O)c2ccccc12)NNC(=O)c1ccccc1,.,.,.,-20,1.4,
CC(C)C(NC(=O)C1CCCCC1)C(=O)NCCc1ccccc1 (stereo unspecified),-1%,.,-6,-2,0.2,

# Pulled by compound from the entries so far, six records:
SMILES,Mtb H37Rv,YopH PTP inh,Arbovirus inh,Mtb bLac sens,RecA splice inh,others
CCCOc1ccc(C(=O)N(CC(C)C)c2c(N)n(Cc3ccccc3)c(=O)[nH]c2=O)cc1,.,.,.,-6,-3.2,
CC(C)C(NC(=O)C1CCCCC1)C(=O)NCCc1ccccc1 (stereo unspecified),-1%,.,-6,-2,0.2,
O=C(NCCN1CCCCC1)c1c(O)c2ccccc2[nH]c1=O,-15%,-15,-6,-4,-2.9,
COc1c(Cl)cc(Cl)cc1CNCCNCC(C)O (stereo unspecified),1%,5,1,8,3.1,
Cc1ccc(-n2nnnc2SCc2ccccn2)cc1C,.,-13,-4,0,0.1,
O=C(COC(=O)Cc1n[nH]c(=O)c2ccccc12)NNC(=O)c1ccccc1,.,.,.,-20,1.4,

# New compounds follow:
SMILES,Mtb H37Rv,YopH PTP inh,Arbovirus inh,Mtb bLac sens,RecA splice inh,others
O=C(CN1C(=O)C2C3C=CC(C3)C2C1=O)NCc1ccc2c(c1)OCO2 (stereo unspecified),-2%,-30,6,-4,-2.1,
COc1ccc(CCNC(=O)Cn2c(=O)n(-c3ccc(F)cc3F)c(=O)c3sccc32)cc1OC,-14%,.,23,-1,0.0,
COc1ccc(-c2cc(C(F)(F)F)nc(SCCC(=O)NCc3ccccc3)n2)cc1,-4%,-7,-3,1,1.2,
C=CCn1c(-c2cccc(OCC)c2)n[nH]c1=S,-3%,.,3,-11,-0.5,
O=C(NC1CCCC1)C1CCC(=O)N1C1CCCCC1 (stereo unspecified),1%,.,7,-4,3.5,
CSc1ccccc1C(=O)C1CCCN(Cc2ccn[nH]2)C1 (stereo unspecified),0%,.,8,-6,-0.3,
COc1cccc(NC(=O)CCC(=O)Nc2ccc3nc(N4CCOCC4)cc(C)c3c2)c1,.,.,.,0,0.9,
COc1cccc(OCc2cc(C(=O)NCC3CCCCC3)no2)c1,.,.,.,1,3.3,
CCOC(=O)c1ccc(Nc2cc(C)nc(C)c2C(=O)OCC)cc1,1%,-11,14,23,2.1,
N#CC1=C2C=Cc3ccccc3N2CCCC1=O,1%,-29,-2,.,-1.0,
CC1(C)CC(=O)C2=C(C1)NC(=O)CC2c1ccc(F)cc1 (stereo unspecified),-3%,-39,12,-1,1.1,
CC(C)NC(=S)N/N=C/c1c[nH]c2ccccc12,30%,-26,16,95,17,
CC(NC(=O)/C=C/c1cnc2ccccc2n1)C12CC3CC(CC(C3)C1)C2 (stereo unspecified),21%,-26,-17,97,16,
COc1cccc(NC(=O)NCc2ccccc2F)c1,3%,.,-4,-1,-0.1,
CCOc1cc(/C=N/Nc2cc(C)nc(-n3nc(C)cc3C)n2)ccc1O,?,.,.,96,-1.3,
Cn1c(N)c(C(=O)COC(=O)c2ncc(Cl)c(Cl)c2Cl)c(=O)n(C)c1=O,-9%,.,4,0,-1.0,
Cc1[nH]c2ccccc2c1CN1CCC(Cc2ccccc2)CC1,10%,.,-10,9,-0.9,
CCOC(=O)c1cnc2c(C#N)c(C)nn2c1-c1ccccc1,3%,.,2,1,-1.5,Arbovirus inh repeat=-3
CN(C)S(=O)(=O)c1ccc(Cl)c(NC(=O)CN2C(=O)NC(C)(C3CC3)C2=O)c1 (stereo unspecified),1%,.,.,-4,1.4,
O=c1c2ccccc2nc(-c2ccccc2)n1Cc1ccco1,2%,-46,1,-33,.,
COc1cccc(CN2CCNC(=O)C2CC(=O)NCCc2cccc(C)n2)c1OC (stereo unspecified),0%,.,-1,-3,-0.3,
Cc1ccc2c(c1)[nH]c1c(N3CCN(Cc4ccccc4)CC3)ncnc12,55%,-58,-19,10,.,
CCC(C)[C@H]1COCCS(=O)(=O)N1Cc1ccc(Br)cc1 (stereo partly specified),.,.,.,-7,2.1,
O=C(c1ccco1)N1CCN(S(=O)(=O)c2cccc(Cl)c2)CC1,.,.,.,-8,0.4,
O=C(CSCc1ccc(Br)cc1)NC1CC1,2%,.,7,-3,0.7,
O=C(Cn1ncc2c(=O)oc3ccccc3c21)NCCCN1CCCC1=O,-2%,-2,-3,?,1.4,Arbovirus inh repeat=2
O=C(Nc1nc(-c2ccccc2)c(-c2ccccc2)s1)c1ccc(S(=O)(=O)N2CCCC2)cc1,.,-10,14,-4,4.2,
COc1ccc(CNC(=O)Oc2ccccc2)cc1Cl,9%,-34,10,54,3.3,
NCCc1nnc(SCC(=O)c2ccc(Cl)cc2)o1,4%,.,.,-1,-0.1,
CC(=O)NNc1nc(-c2ccc(NC(C)=O)cc2)cs1,2%,-23,7,5,-2.3,

# Among those listed so far, 6 have an aryl thioether with sulfur outside any ring.
SMILES,Mtb H37Rv,YopH PTP inh,Arbovirus inh,Mtb bLac sens,RecA splice inh,others
CN(CC(=O)N1CCOCC1)C(=O)CSc1nc2ccccc2s1,7%,.,14,-2,-0.4,
Cc1ccc(-n2nnnc2SCc2ccccn2)cc1C,.,-13,-4,0,0.1,
CCOCCCn1c(SCC(=O)Nc2ccc(C(N)=O)cc2)nc2ccccc2c1=O,-1%,-45,-4,-3,5.5,
COc1ccc(-c2cc(C(F)(F)F)nc(SCCC(=O)NCc3ccccc3)n2)cc1,-4%,-7,-3,1,1.2,
CSc1ccccc1C(=O)C1CCCN(Cc2ccn[nH]2)C1 (stereo unspecified),0%,.,8,-6,-0.3,
NCCc1nnc(SCC(=O)c2ccc(Cl)cc2)o1,4%,.,.,-1,-0.1,

# Next structures
SMILES,Mtb H37Rv,YopH PTP inh,Arbovirus inh,Mtb bLac sens,RecA splice inh,others
O=S(=O)(c1ccccc1F)N(Cc1ccco1)Cc1nnc(-c2ccccc2Br)o1,5%,-46,-1,.,7.3,
COc1ccccc1-c1nnc(SCC(=O)N2CCC(C)CC2)o1,10%,29,4,32,0.9,
O=C(O)c1[nH]c(=O)[nH]c(=O)c1F,6.6µM*,.,.,99,-0.3,
CC(C)CCN(C(=O)CNC(=O)c1ccco1)C(C(=O)NC1CCCCC1)c1ccco1 (stereo unspecified),-3%,-13,0,-5,2.1,
CC(C)CN(CC(C)C)c1ccc(C=C2C(=O)NC(=S)NC2=O)cc1[N+](=O)[O-],6%,6,-5,8,.,
O=C1C2ON(c3ccccc3)C(c3cccnc3)C2C(=O)N1Cc1ccccc1 (stereo unspecified),0%,-9,-4,-3,1.5,
O=C(N1CCOCC1)C1(c2ccc(Cl)cc2)CCCC1,9%,-16,4,-6,-3.3,
CC(C)NS(=O)(=O)c1ccc(OCC(=O)Nc2cccc(F)c2)cc1,11%,.,5,1,0.0,
CCN(CC)c1ccc(NC(=O)C2CCC(CNc3c(N4CCCC4)c(=O)c3=O)CC2)c(C)c1 (stereo unspecified),-3%,.,.,-9,-3.2,
CCc1ccc(/C=C2/SC(=S)N(CCC(=O)Nc3cccnc3)C2=O)cc1,.,.,.,-4,-2.1,
Cc1cccc(NC(=O)CNC(=O)CCc2nc3sc4c(c3c(=O)[nH]2)CCCC4)c1C,.,.,.,0,-5.9,
